Ecoli rRNA inh: inhibits bacterial ribosomal RNA function over humanized ribosomes. 350,000 tested, 1.6% active. GFP signal change (wild-type ribosome), % (no concentration beside the values). E. coli WT GFP vs humanized-ribosome RFP mutants, fluorescence, 24 h; stronger effect = lower value; DMSO median 0, no signal -100;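 active = significant combined selectivity score with lowered wild-type GFP, culture density cut under 30%, mutant RFP and density less affected; inactive = any of these conditions unmet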; also: one replicate is shown; some compounds called inactive have numbers as strong as hits
FGF22 binding: binders of recombinant human FGF22 by thermal shift; Q9HCT0; 340,000 tested, 1.5% active; calls only at 9.99 µM; SYPRO orange fluorescence; percent of sucrose octasulfate shift, DMSO zero;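 active = melting point raised past a set limit in the mean and every replicate; three in four hits are not shown here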
Target sequence (Q9HCT0 whole entry, looked up): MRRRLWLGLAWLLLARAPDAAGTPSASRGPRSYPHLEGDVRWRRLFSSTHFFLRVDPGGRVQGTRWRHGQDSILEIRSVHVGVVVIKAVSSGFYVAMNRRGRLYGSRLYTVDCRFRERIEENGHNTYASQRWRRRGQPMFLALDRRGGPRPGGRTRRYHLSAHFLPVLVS
Ecoli rRNA inh OD600: also measured in Ecoli rRNA inh; calls as there; OD600 change, %; measured here: OD600 growth;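 optical density of the mix in the first replicate; 0 = DMSO median and -100 = no signal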
Ecoli rRNA inh RFP: also measured in Ecoli rRNA inh; calls as there; RFP signal change, %; measured here: RFP humanized mutant strains;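 first replicate; 0 = DMSO median and -100 = no signal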
* marks the source's active call; other numbers are inactive results; i = inactive; + = active, no number.

Ecoli rRNA inh,Ecoli rRNA inh OD600,Ecoli rRNA inh RFP,FGF22 binding,smiles
-7,-15,-1.3,i,C/C=C/c1ccc2c(c1)O[C@@H](CN(C)C(=O)Nc1cc(F)ccc1F)[C@H](C)CN([C@@H](C)CO)S2(=O)=O
-12,-18,1.9,i,COc1ccccc1C#Cc1cnc2c(c1)C(=O)N([C@H](C)CO)C[C@H](C)[C@@H](CN(C)C(=O)c1ccc3c(c1)OCO3)O2
2,0,1.7,i,C[C@@H]1CCCCO[C@@H](CN(C)Cc2ccc(C(=O)O)cc2)[C@H](C)CN([C@H](C)CO)C(=O)c2cc(NS(=O)(=O)c3cn(C)cn3)ccc2O1
-4,-1,-2.9,i,CO[C@@H]1CN(C)C(=O)c2ccc(NC(=O)c3ccc4c(c3)OCO4)cc2OC[C@@H](C)N(CCC(F)(F)F)C[C@H]1C
-1,1,0.5,i,CO[C@@H]1CN(C)C(=O)c2cc(NC(=O)Nc3ccccc3)ccc2OC[C@H](C)N(C(=O)Nc2c(C)noc2C)C[C@@H]1C
-1,1,-4.1,i,C[C@@H]1CCCCO[C@H](CN(C)Cc2ccc(C(=O)O)cc2)[C@H](C)CN([C@H](C)CO)C(=O)c2cc(NC(=O)NC3CCCCC3)ccc2O1
-2,1,-3.3,i,COC(=O)[C@@H]1[C@@H](CO)[C@@H]2Cn3c(ccc(-c4cccnc4)c3=O)[C@@H]2N1Cc1ccccc1F
-1,-2,0.1,i,C[C@@H]1CN([C@@H](C)CO)C(=O)c2cc(NS(=O)(=O)c3cn(C)cn3)ccc2O[C@@H]1CN(C)C
4,17,2.6,i,COCC(=O)N1CCCCN2[C@H](CO)[C@H](c3ccc(-c4ccc(OC)cc4)cc3)[C@H]2C1
-1,4,-2.3,i,CO[C@H]1CN(C)C(=O)c2ccc(NS(C)(=O)=O)cc2OC[C@H](C)N(Cc2cccnc2)C[C@H]1C
1,5,0.0,i,Cc1noc(C)c1S(=O)(=O)N(C)C[C@@H]1OCCCC[C@H](C)Oc2ccc(NS(C)(=O)=O)cc2C(=O)N([C@H](C)CO)C[C@H]1C
1,5,-0.2,i,N#C[C@@H]1[C@H](c2ccccc2-c2ccc(F)cc2)[C@H](CO)N1C(=O)Cc1cccnc1
6,-3,-1.5,i,C[C@@H]1CN([C@H](C)CO)C(=O)c2cc(NC(=O)Cc3cn(C)c4ccccc34)ccc2O[C@@H]1CN(C)Cc1ccncc1
-1,1,-2.0,i,COc1ccccc1S(=O)(=O)N[C@@H]1C=C[C@@H](CC(=O)N2CCCCC2)O[C@@H]1CO
0,2,-3.6,i,O=C(NCc1ccc(F)cc1)[C@@H]1[C@@H](CO)[C@@H]2Cn3c(cccc3=O)[C@@H]2N1CCC(F)(F)F
1,-6,-0.6,i,COc1ccc2c3c(n(C)c2c1)[C@H](CO)N(C(=O)Cc1ccccn1)CC31CCN(CC2CCCC2)CC1
1,1,1.5,+,CO[C@@H]1CN(C)C(=O)c2ccc(NC(C)=O)cc2OC[C@@H](C)N(C(=O)Cc2ccccn2)C[C@H]1C
2,-2,3.7,i,C[C@@H]1CN([C@@H](C)CO)C(=O)c2cc(NC(=O)Nc3ccc4c(c3)OCO4)ccc2O[C@@H]1CN(C)C(=O)Nc1ccc(F)cc1
6,16,1.0,i,CN(C)CC(=O)N1CC[C@@H]2[C@H]1c1cc(Br)ccc1N(C)[C@@H]2CO
-1,-1,-0.5,i,COc1cccc(CNC(=O)C[C@@H]2CC[C@H](NC(=O)C3CC3)[C@H](CO)O2)c1
0,0,0.8,i,COc1ccc(S(=O)(=O)N(C)C[C@@H]2OCCCC[C@H](C)Oc3ccc(NS(=O)(=O)c4c(C)noc4C)cc3C(=O)N([C@H](C)CO)C[C@@H]2C)cc1
0,5,-0.8,i,C[C@@H]1CN([C@H](C)CO)C(=O)c2cccc(NC(=O)C3CCOCC3)c2O[C@@H]1CN(C)Cc1ccc(C(=O)O)cc1
-1,1,2.7,i,COC(=O)C[C@@H]1CC[C@@H]2[C@@H](COc3ccc(NS(=O)(=O)c4cccc(F)c4)cc3C(=O)N2C)O1
-6,15,-1.4,i,COc1cccc(S(=O)(=O)N2CCCCN3[C@H](CO)[C@H](c4ccc(-c5ccccc5)cc4)[C@H]3C2)c1
-8,-32,11,i,C[C@H]1CN([C@@H](C)CO)C(=O)c2cc(C#Cc3cccc(F)c3)cnc2O[C@H]1CN(C)CC1CCCC1
-5,-9,-0.1,i,CCCN1C[C@@H](C)[C@H](OC)CN(C)C(=O)c2cc(NC(=O)c3ccccc3F)ccc2OC[C@H]1C
2,-40,32,i,C[C@H](CO)N1C[C@H](C)[C@@H](CN(C)C)Oc2cc(C#Cc3ccccc3F)ccc2S1(=O)=O
3,6,-2.4,i,CO[C@@H]1CN(C)C(=O)c2cc(NC(=O)c3ccc(F)cc3)ccc2OC[C@H](C)N(C(C)=O)C[C@H]1C
1,4,-1.5,i,C[C@H]1CN([C@@H](C)CO)C(=O)Cc2cc(NC(=O)CCN3CCOCC3)ccc2O[C@@H]1CN(C)C(=O)NC1CCCCC1
-9,-18,-0.6,i,CCS(=O)(=O)Nc1ccc2c(c1)C(=O)N(C)[C@H]1CC[C@H](CC(=O)Nc3ccc(Cl)cc3)O[C@@H]1CO2

Ecoli rRNA inh,Ecoli rRNA inh OD600,Ecoli rRNA inh RFP,FGF22 binding,smiles
-4,-13,-2.0,i,COc1ccc(NC(=O)Nc2cccc3c2O[C@H](CN(C)Cc2ccc(-c4ccccc4)cc2)[C@@H](C)CN([C@@H](C)CO)C3=O)cc1
2,3,-1.2,i,CC(C)NC(=O)Nc1ccc2c(c1)C(=O)N([C@H](C)CO)C[C@H](C)[C@H](CN(C)CC1CC1)O2
-2,6,-2.1,i,CCCNC(=O)Nc1ccc2c(c1)OC[C@H](C)N(Cc1ccncc1)C[C@H](C)[C@H](OC)CN(C)C2=O
1,-1,-1.2,i,CC(C)NC(=O)Nc1ccc2c(c1)CC(=O)N([C@H](C)CO)C[C@H](C)[C@H](CN(C)S(=O)(=O)c1ccc(F)cc1)O2
-4,-25,6.0,i,C[C@@H]1CN([C@H](C)CO)C(=O)c2cc(NS(=O)(=O)c3ccc(F)cc3)ccc2O[C@@H](C)CCCCO[C@H]1CN(C)Cc1ccc(C(F)(F)F)cc1
4,4,1.6,i,CCCNC(=O)N1CC2(CCN(Cc3ccccn3)CC2)c2c(n(C)c3cc(OC)ccc23)[C@H]1CO
4,9,1.9,i,CC(C)NC(=O)Nc1cccc2c1O[C@H](CN(C)S(=O)(=O)c1cn(C)cn1)[C@H](C)CN([C@@H](C)CO)C2=O
-3,6,1.7,i,COc1ccc2c3c(n(C)c2c1)[C@@H](CO)N(C(=O)Nc1ccccc1F)CC31CN(C(C)=O)C1
2,1,2.2,i,COc1ccc(CN(C)C[C@H]2Oc3ccc(NC(=O)Cc4ccccc4)cc3CC(=O)N([C@H](C)CO)C[C@@H]2C)cc1
6,3,-0.8,i,COc1ccccc1NC(=O)N1C[C@H](O)COC[C@@H]2O[C@H](CC(=O)NCCc3ccncc3)CC[C@H]21
-56,-76,-14,i,N#C[C@H]1[C@@H](c2ccc(-c3ccccc3F)cc2)[C@H](CO)N1C(=O)Cc1ccccc1
0,0,-1.2,i,CCNC(=O)C[C@H]1CC[C@H]2[C@H](COc3ccc(NC(=O)Nc4cccc(F)c4)cc3C(=O)N2C)O1
5,7,-0.7,i,CC(C)NC(=O)Nc1ccc2c(c1)CC(=O)N([C@H](C)CO)C[C@@H](C)[C@@H](CN(C)CC1CCCCC1)O2
-1,-1,0.3,i,COCC#Cc1cnc2c(c1)C(=O)N([C@@H](C)CO)C[C@@H](C)[C@@H](CN(C)C(=O)Nc1ccccc1OC)O2
-2,-2,-1.2,i,O=C(Nc1ccccc1)N[C@H]1CC[C@H](CCNS(=O)(=O)c2cccc(F)c2)O[C@@H]1CO
-4,0,3.6,i,CO[C@@H]1CN(C)C(=O)c2ccc(NC(=O)Nc3cccc(F)c3)cc2OC[C@H](C)N(C(=O)Nc2c(C)noc2C)C[C@H]1C
1,7,-1.2,i,CO[C@@H]1CN(C)C(=O)c2cc(NC(=O)c3ccccc3F)ccc2OC[C@@H](C)N(CC2CC2)C[C@@H]1C
-19,-25,11,i,Cc1ccc(S(=O)(=O)Nc2ccc3c(c2)C(=O)N([C@H](C)CO)C[C@@H](C)[C@@H](CN(C)CC2CCCCC2)OCCCC[C@H](C)O3)cc1
-2,-3,-1.7,i,COc1cccc(C(=O)N2C[C@@H]3[C@H](c4ccccc42)[C@H](CO)N3Cc2cccnc2)c1
7,12,1.4,i,C[C@@H]1CN([C@@H](C)CO)C(=O)c2cc(C#CCc3ccccc3)cnc2O[C@@H]1CN(C)CC1CCOCC1
1,-1,-0.9,i,O=C(C[C@@H]1CC[C@H](NC(=O)C2CCOCC2)[C@H](CO)O1)NCC1CCCCC1
3,5,-1.0,i,CC(C)C(=O)Nc1ccc2c(c1)C(=O)N(C)[C@@H]1CC[C@H](CC(=O)N[C@H](C)c3ccccc3)O[C@H]1CO2
-5,-1,1.3,i,C[C@@H]1CN([C@H](C)CO)C(=O)c2cc(NC(=O)C3CCCCC3)ccc2O[C@@H](C)CCCCO[C@H]1CN(C)C(=O)Nc1ccc2c(c1)OCO2
-2,0,2.3,i,CCC(=O)N1C[C@H](C)[C@@H](OC)CN(C)C(=O)c2ccc(NC(=O)c3ccccc3)cc2OC[C@H]1C
0,5,2.3,i,C[C@H](CO)N1C[C@H](C)[C@H](CN(C)S(=O)(=O)c2ccc(Cl)cc2)Oc2ccc(NC(=O)Nc3ccccc3)cc2C1=O
2,7,-3.0,i,C[C@H]1CN([C@@H](C)CO)C(=O)c2cc(-c3cccc(C#N)c3)cnc2O[C@@H]1CN(C)Cc1ccncc1
2,20,0.9,i,C[C@H]1CN([C@@H](C)CO)S(=O)(=O)c2ccc(Br)cc2O[C@H]1CN(C)C(=O)C1CC1
0,-1,0.4,i,C[C@H](O)C#Cc1ccc2c(c1)O[C@H](CN(C)Cc1ccncc1)[C@H](C)CN([C@@H](C)CO)S2(=O)=O
3,4,-0.6,i,Cc1ccc(-c2cnc3c(c2)C(=O)N([C@H](C)CO)C[C@H](C)[C@@H](CN(C)CC2CCOCC2)O3)cc1
-6,-17,-1.0,+,COc1ccc(C(=O)N2C[C@@H]3[C@H](c4ccccc42)[C@@H](CO)N3Cc2ccccc2)cc1

Ecoli rRNA inh,Ecoli rRNA inh OD600,Ecoli rRNA inh RFP,FGF22 binding,smiles
1,7,-1.0,i,C[C@H](CO)N1C[C@H](C)[C@@H](CN(C)C(=O)NC2CCCC2)OCc2cn(nn2)CCCC1=O
0,1,-4.8,i,C[C@H](CO)N1C[C@H](C)[C@@H](CN(C)C(=O)NC2CCCCC2)Oc2c(NC(=O)NC3CCCCC3)cccc2C1=O
-3,6,0.0,i,CCCC(=O)Nc1ccc2c(c1)OC[C@@H](C)N(Cc1ccccn1)C[C@H](C)[C@H](OC)CN(C)C2=O
-1,2,2.3,i,COc1ccc(S(=O)(=O)Nc2ccc3c(c2)C(=O)N([C@H](C)CO)C[C@@H](C)[C@H](CN(C)S(=O)(=O)c2ccc(C)cc2)OCCCC[C@@H](C)O3)cc1
-1,-7,-4.2,i,COc1ccc(CN(C)C[C@H]2OCCCC[C@@H](C)Oc3ccc(NC(=O)CCC(F)(F)F)cc3C(=O)N([C@@H](C)CO)C[C@@H]2C)cc1
-1,7,-5.6,i,O=S(=O)(c1ccccc1)N1CC[C@@H]2[C@H](CO)Nc3ccc(C#Cc4ccccc4F)cc3[C@@H]21

Copied from the entries so far, eight compounds:
Ecoli rRNA inh,Ecoli rRNA inh OD600,Ecoli rRNA inh RFP,FGF22 binding,smiles
3,4,-0.6,i,Cc1ccc(-c2cnc3c(c2)C(=O)N([C@H](C)CO)C[C@H](C)[C@@H](CN(C)CC2CCOCC2)O3)cc1
-6,-17,-1.0,+,COc1ccc(C(=O)N2C[C@@H]3[C@H](c4ccccc42)[C@@H](CO)N3Cc2ccccc2)cc1
1,7,-1.0,i,C[C@H](CO)N1C[C@H](C)[C@@H](CN(C)C(=O)NC2CCCC2)OCc2cn(nn2)CCCC1=O
0,1,-4.8,i,C[C@H](CO)N1C[C@H](C)[C@@H](CN(C)C(=O)NC2CCCCC2)Oc2c(NC(=O)NC3CCCCC3)cccc2C1=O
-3,6,0.0,i,CCCC(=O)Nc1ccc2c(c1)OC[C@@H](C)N(Cc1ccccn1)C[C@H](C)[C@H](OC)CN(C)C2=O
-1,2,2.3,i,COc1ccc(S(=O)(=O)Nc2ccc3c(c2)C(=O)N([C@H](C)CO)C[C@@H](C)[C@H](CN(C)S(=O)(=O)c2ccc(C)cc2)OCCCC[C@@H](C)O3)cc1
-1,-7,-4.2,i,COc1ccc(CN(C)C[C@H]2OCCCC[C@@H](C)Oc3ccc(NC(=O)CCC(F)(F)F)cc3C(=O)N([C@@H](C)CO)C[C@@H]2C)cc1
-1,7,-5.6,i,O=S(=O)(c1ccccc1)N1CC[C@@H]2[C@H](CO)Nc3ccc(C#Cc4ccccc4F)cc3[C@@H]21

High-throughput results from PubChem.

Not all compounds are listed; rates above refer to the full screens.
